PMP22 txn: modulates PMP22 transcription in S16 Schwann cells | 2% of 43,000 active | AID 1508649 | S16 Pmp22-F2sN Schwann cells (luciferase reporters placed in the Pmp22 gene), FLuc/NLuc coincidence luminescence, 24 h | Potency, µM (highest dose often 57.5 µM), for the others: top-dose activity change, negative = inhibition, usual class: inhibitors; active = clear falling dose curves in both reporters; inconclusive = both reporters move, but less clearly or upward; inactive = either reporter flat; the % is the NLuc reporter signal; also: % is scaled to controls: 0 for no effect and ±100 for the full control effect; some results filed as inactive show a strong effect at the top dose
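S16 Schwann cells carrying FLuc/NLuc coincidence reporter in the Pmp22 3' UTR treated with compound 24 h at 37C; FLuc then NLuc luminescence read sequentially by dual-luciferase reagents.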
HTT prom inh: inhibits huntingtin promoter activity; HEK293 HTT promoter firefly luciferase reporter (activity 0% = vehicle and -100% = no light), 24 h; 0.93% of 48,000 active; AID 1508623; Potency, µM (titrated, usually from 57.5 µM), inactives show at the top dose activity change, negative = inhibition, usual class: inhibitors; active = well fitted inhibition curve with a large enough effect; inconclusive = small, poorly fitted or top-dose-only effect; inactive = no such curve, though single readings can be large or run the other way; also: nearly all actives have a fitted effect of over 50% in size
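Firefly luciferase signal from promoter-reporter HEK293 cells was scaled between vehicle (0%) and zero RLU (-100%). Compounds were tested at final concentrations of up to 57.5 uM over 24 h at 37 degrees C. PTC124 at 50 uM final served as control inhibitor.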
* = called active by the depositor; ? = inconclusive; / = no result given; & = joins results of further samples; [ ] = dose if it differs, or a comment. Potency is read from the fitted curve at half-maximal effect.

(1) N#C/C(=C\c1ccc(F)cc1)c1nc(-c2ccc(-c3ccccc3)cc2)cs1
(2) CC(C)CCNC(=O)C1CCN(C(=O)N2CCOc3ccc(Cl)cc32)CC1
(3) COc1ccc(N2CC(NC(=O)c3ccc(S(=O)(=O)N4CCOCC4)cc3)CC2=O)cc1 (stereo unspecified)
(4) COc1ccc(-c2cnc(C)o2)cc1S(=O)(=O)Nc1c(C)cc(C)cc1C
(5) Cc1ccccc1CNC(=O)CCCn1c(=O)c2cccn2c2ccccc21
entry no.,1,2,3,4,5
PMP22 txn,-14%,?,19%,3%,16µM*
HTT prom inh,15%,-21%,-5%,-34%,4%

(6) Cc1cccc(N(C)C(=O)c2cc(S(=O)(=O)N3CCCC3)cn2C)c1
(7) Cn1ccc2cc(S(=O)(=O)N3CCCC(C(=O)NCc4ccccc4F)C3)ccc21 (stereo unspecified)
(8) COc1ccc(NC(=O)CC2C(=O)N(c3ccc(C)cc3)C(=O)N2Cc2ccc(C)cc2)cc1 (stereo unspecified)
(9) O=C(COc1ccccc1)N(Cc1cccnc1)c1nc2c(F)cc(F)cc2s1
(10) COc1ccc(-c2nc3scc(CCNS(=O)(=O)c4ccc(F)cc4C)n3n2)cc1
entry no.,6,7,8,9,10
PMP22 txn,-14%,-10%,-36%,-20%,10%
HTT prom inh,-3%,-24%,-17%,-23%,-27%

(11) O=C(c1c2c(nc3ccccc13)C(=O)N(C1CCCCC1)C2)N1CCN(c2ccc(F)cc2)CC1
(12) CC(=O)Nc1cccc(-c2nnc(SCC(=O)c3cc([N+](=O)[O-])ccc3Cl)o2)c1
(13) Cc1ccc(C)c(Nc2nn3c(=O)c4ccc(C(=O)NCc5cccs5)cc4nc3s2)c1
(14) Cc1ccc(CNC(=O)c2ccc3c(c2)N(Cc2ccccc2)C(=O)c2ccccc2S3(=O)=O)cc1
(15) Cc1cccc(N2CCN(C(=O)CS(=O)(=O)Cc3nc(-c4ccccc4C)oc3C)CC2C)c1 (stereo unspecified)
entry no.,11,12,13,14,15
PMP22 txn,10µM*,14µM*,13µM*,4%,?
HTT prom inh,-20%,-32%,?,-14%,?

(16) CS(=O)(=O)NCCc1csc2nc(-c3ccccc3)nn12
(17) CCOCCCn1c(SCC(=O)Nc2ccc(F)cc2)nc2c(sc3ccccc32)c1=O
(18) CCNC(=O)c1ccc(-n2c(-c3ccccc3)cc3c2CCCCC3)cc1
(19) COc1ccc(/C=C/C(=O)Nc2nc3n(n2)C(c2ccccc2)C=C(c2ccccc2)N3)cc1 (stereo unspecified)
(20) CC(C)(Oc1ccc(CCNC(=O)c2ccc(Cl)cc2)cc1)C(=O)O
entry no.,16,17,18,19,20
PMP22 txn,8%,?,-53%,-12%,/
HTT prom inh,0%,-13%,8%,-31%,12%

(21) N#CC(=C(O)c1ccc(Cl)cc1Cl)c1nc2cc(Cl)ccc2c(=O)[nH]1
(22) CC1=C(c2ccc(C)cc2)S(=O)(=O)NC1=NCc1cccc(F)c1
(23) Cc1ccc(-c2nnc(SCC(=O)NC3CCCC3)nc2-c2ccc(C)cc2)cc1
(24) CCC1CCCCN1S(=O)(=O)c1ccc(NC(=O)c2cc(=O)c3c(C)cc(C)cc3o2)cc1 (stereo unspecified)
(25) Cc1ccc(CN2CCCn3nc(C(=O)NCCc4ccccc4Cl)cc3C2=O)cc1
entry no.,21,22,23,24,25
PMP22 txn,/,3%,4%,-1%,?
HTT prom inh,-2%,-17%,-23%,4%,-25%

Compounds 12 through 22, quoted:
(12) CC(=O)Nc1cccc(-c2nnc(SCC(=O)c3cc([N+](=O)[O-])ccc3Cl)o2)c1
(13) Cc1ccc(C)c(Nc2nn3c(=O)c4ccc(C(=O)NCc5cccs5)cc4nc3s2)c1
(14) Cc1ccc(CNC(=O)c2ccc3c(c2)N(Cc2ccccc2)C(=O)c2ccccc2S3(=O)=O)cc1
(15) Cc1cccc(N2CCN(C(=O)CS(=O)(=O)Cc3nc(-c4ccccc4C)oc3C)CC2C)c1 (stereo unspecified)
(16) CS(=O)(=O)NCCc1csc2nc(-c3ccccc3)nn12
(17) CCOCCCn1c(SCC(=O)Nc2ccc(F)cc2)nc2c(sc3ccccc32)c1=O
(18) CCNC(=O)c1ccc(-n2c(-c3ccccc3)cc3c2CCCCC3)cc1
entry no.,12,13,14,15,16,17,18
PMP22 txn,14µM*,13µM*,4%,?,8%,?,-53%
HTT prom inh,-32%,?,-14%,?,0%,-13%,8%

(19) COc1ccc(/C=C/C(=O)Nc2nc3n(n2)C(c2ccccc2)C=C(c2ccccc2)N3)cc1 (stereo unspecified)
(20) CC(C)(Oc1ccc(CCNC(=O)c2ccc(Cl)cc2)cc1)C(=O)O
(21) N#CC(=C(O)c1ccc(Cl)cc1Cl)c1nc2cc(Cl)ccc2c(=O)[nH]1
(22) CC1=C(c2ccc(C)cc2)S(=O)(=O)NC1=NCc1cccc(F)c1
entry no.,19,20,21,22
PMP22 txn,-12%,/,/,3%
HTT prom inh,-31%,12%,-2%,-17%

Remaining list, next part
(26) COc1cc2c(N3CCN(C(=O)Nc4ccc(OC(C)C)cc4)CC3)ncnc2cc1OCCCN1CCCCC1
(27) CCCCCCCC/C=C/C(=O)O
(28) CCOc1ccccc1N(C)C(=O)Cn1nc(Cc2ccncc2)c2ccccc2c1=O
(29) Cc1ccc(NS(=O)(=O)c2ccc(-n3cccn3)cc2)c(Br)c1
(30) COc1cc(NC(=O)c2cc3c(=O)n(Cc4cccs4)ccc3nc2C)cc(OC)c1OC
entry no.,26,27,28,29,30
PMP22 txn,/,/,?,?,?
HTT prom inh,-4%&-4%,-2%,-13%,?,?

(31) Cn1ccc2cc(S(=O)(=O)N3CCC(C(=O)NCCc4ccccc4)CC3)ccc21
(32) COc1cccc(NC(=O)CSC2=Nc3ccccc3C3=NC(CC(=O)NC4CCCCC4)C(=O)N23)c1 (stereo unspecified)
(33) Cc1cccc(C)c1OCC(=O)Nc1nonc1-c1ccc(Br)cc1
(34) CCOc1ccccc1NC(=O)c1ccc2oc(=O)c(S(=O)(=O)c3ccc(F)cc3)cc2c1
(35) CCOc1cc(C(=O)Nc2cc3c(cc2N2CCCC2)n(C)c(=O)c(=O)n3C)cc(OCC)c1OCC
entry no.,31,32,33,34,35
PMP22 txn,?,?,-32%,-11%,-19%
HTT prom inh,-12%,?,-14%,?,3%

(36) COc1cccc(N2CCN(S(=O)(=O)c3cn(C)c(C)n3)CC2)c1
(37) CSc1ccc(-c2nc3cccc(C)n3c2Nc2ccc3c(c2)OCO3)cc1
(38) CC(=O)N1CCc2cc(S(=O)(=O)NC(CC(C)C)C(=O)Nc3ccc(C(C)C)cc3)ccc21 (stereo unspecified)
(39) CC(=O)Nc1ccccc1-c1nc2ccccc2n(CC(=O)Nc2cccc(C)c2C)c1=O
(40) Cc1cc(C)cc(NC(=O)CSc2c(C(C)C)cnc3c2c(=O)n(C)c(=O)n3C)c1
entry no.,36,37,38,39,40
PMP22 txn,-15%,?,-4%,-10%,?
HTT prom inh,-3%,-17%,-19%,-2%,-7%

(41) CC(=O)Nc1ccc(NS(=O)(=O)c2c(C(=O)N3CCC(C)CC3)c(C)n(C)c2C)cc1
(42) COc1ccc(OC)c(S(=O)(=O)Nc2ccc3c(c2)n(C)c(=O)n3C)c1
(43) Cc1ccc(N2CC(NC(=O)c3ccc(S(=O)(=O)N4CCCCC4)cc3)CC2=O)cc1 (stereo unspecified)
(44) CCCOc1ccc(C2c3c(-c4c(C)cc(C)cc4O)n[nH]c3C(=O)N2CCO)cc1 (stereo unspecified)
(45) Cc1ccccc1-c1nnn(CC(=O)Nc2sc3c(c2C#N)CCC(C(C)(C)C)C3)n1 (stereo unspecified)
entry no.,41,42,43,44,45
PMP22 txn,5%,3%,2%,-11%,11%
HTT prom inh,-19%,0%,?,?,-7%

(46) Cc1ccccc1NC(=O)CSc1nc(-c2ccccc2C)nc2cc(=O)[nH]n12
(47) CC1CCN(C(=O)CSc2nc(-c3ccc(C(C)C)cc3)no2)CC1
(48) CCc1c(C)[nH]c2c1C(=O)C(CN1CCOCC1)CC2 (stereo unspecified)
(49) Cc1ccc(C(=O)Nc2nnc(S(=O)(=O)N3CCOCC3)s2)cc1
(50) Cc1nn(CCC(=O)NCc2cccc(Br)c2)c(=O)c2nn(-c3ccccc3)c(C)c12
entry no.,46,47,48,49,50
PMP22 txn,?,-29%,/,45%,-1%
HTT prom inh,-10%,-10%,8%,11%,-10%

(51) COc1cccc(NS(=O)(=O)c2ccc3c(c2)N(C)C(=O)CC(=O)N3C)c1
(52) Cc1ccc(C)c(NC(=O)C2CCCN2S(=O)(=O)c2ccc3c(c2)n(C)c(=O)c(=O)n3C)c1 (stereo unspecified)
(53) Cc1ccc(-n2nc(C)c3c(C)cc(=O)n(CC(=O)NCc4ccc(OC(C)C)cc4)c32)cc1
(54) O=C1CC2(CCCC2)CC(=O)N1CCCCN1CCN(c2ncccn2)CC1
(55) Cc1cccc(-n2ncc3c(Nc4ccc(Oc5ccc(Cl)cc5)cc4)ncnc32)c1
entry no.,51,52,53,54,55
PMP22 txn,2%,-10%,32%,/,?
HTT prom inh,-7%,7%,-16%,-5%,-11%

(56) Cc1ccc(-n2nc3c(N4CCC(C(=O)NC(C)c5ccccc5)CC4)nnc(C)c3c2C)cc1 (stereo unspecified)
(57) CCOc1ccc(CNCc2c(C(=O)O)c(C)n(Cc3ccc(C)cc3)c2C)cc1
(58) O=C(CCc1nc(CN2CCN(S(=O)(=O)c3ccc(Cl)cc3)CC2)no1)N1CCCCC1
(59) Cc1cccc(N2CCN(CCCNC(=O)c3sc4ncccc4c3-n3cccc3)CC2C)c1 (stereo unspecified)
(60) CN1CCN2c3ccccc3Cc3ccccc3C2C1 (stereo unspecified)
entry no.,56,57,58,59,60
PMP22 txn,-4%,-34%,-9%,?,/
HTT prom inh,-22%,-22%,-18%,0%,-9%&-15%

(61) CC1=C(c2ccc(C)c(C)c2)S(=O)(=O)N=C1N1CCC(C(=O)NC(C)Cc2ccco2)CC1 (stereo unspecified)
(62) Cc1ccc(OCCn2cc(C(=O)c3ccco3)c3ccccc32)cc1C
(63) Cc1ccc(-n2nc(C(=O)NCCc3cccc(C)c3)c3c4ccccc4n(C)c3c2=O)cc1
(64) COc1cccc(CNC(=O)CN2C(=O)CSc3ccc(S(=O)(=O)N(C)C)cc32)c1
(65) Cc1cc(C)cc(-n2c(SCC(=O)N3CCc4ccccc43)nc3c([nH]c4ccccc43)c2=O)c1
entry no.,61,62,63,64,65
PMP22 txn,-45%,?,12%,-15%,-5%
HTT prom inh,-22%,?,-5%,2%,-10%

(66) Nc1nc(-c2nn(Cc3ccccc3F)c3ncccc23)nc(N)c1N1CCOCC1
(67) CCOC(=O)C1CCN(C(c2ccc(F)cc2)c2sc3nc(-c4ccco4)nn3c2O)CC1 (stereo unspecified)
(68) COc1cccc2c1Oc1ncccc1N(C(=O)Nc1cccc(Cl)c1)C2
(69) C[C@@H]1[C@H](O)[C@@H](C)C=CC=CC=CC=CC=CC=CC=C[C@H](O[C@@H]2O[C@H](C)[C@H](O)[C@H](N)[C@@H]2O)C[C@@H]2O[C@](O)(C[C@@H](O)C[C@@H](O)[C@H](O)CC[C@@H](O)C[C@@H](O)CC(=O)O[C@H]1C)C[C@H](O)[C@@H]2C(=O)O
(70) CCCCCOc1ccc(/C=C/C(=O)Nc2sc(C(C)=O)c(C)c2C(=O)OCC)cc1OC
entry no.,66,67,68,69,70
PMP22 txn,/,10%,33%,/,7.5µM*
HTT prom inh,-6%,19%,?,0%,5%

(71) Cn1c(=O)c2c(nc(NCCc3ccccc3)n2Cc2ccc(Cl)c(Cl)c2)n(C)c1=O
(72) COc1ccc(OC)c(CCNc2nc3ccccc3c3nc(-c4cccnc4)nn23)c1
(73) O=S(=O)(c1ccc(Br)cc1)c1nc(-c2cccs2)oc1SCc1ccccc1F
(74) O=C(CSc1ncc(-c2ccccc2)[nH]1)Nc1ccccc1
(75) CCOc1ccccc1NC(=O)CN1C(=O)CC(c2ccc(C)c(C)c2)=Nc2ccccc21
entry no.,71,72,73,74,75
PMP22 txn,-17%,-24%,-25%,34%,-13%
HTT prom inh,-8%,-11%,?,8%,78%[activator]

(76) COC(=O)CN1C(C(=O)c2ccccc2)=C(OC(=O)c2ccc(F)cc2)c2ccccc2S1(=O)=O
(77) CCN(CC)c1cc(C)c2cc(NC(=O)/C=C/c3ccccc3OC(C)C)ccc2n1
(78) COc1cccc(Cn2c(=O)n(-c3ccccc3C)c(=O)c3c2c2cc(C)ccc2n3C)c1
(79) COc1ccc(-n2nc3ccc(NC(=O)c4cc5ccccc5o4)cc3n2)cc1Cl
(80) Cc1cccc(NS(=O)(=O)c2c(C)nc3sccn3c2=O)c1C
entry no.,76,77,78,79,80
PMP22 txn,-23%,-21%,?,?,-18%
HTT prom inh,-7%,-18%,-33%,-6%,-20%

Source: PubChem
